High-throughput results: PubChem BioAssay, National Center for Advancing Translational Sciences (NCATS)
RE007 growth inh: less growth of the S. pombe RE007 Vpr strain; actives 0.21% (n = 360,000); Potency, µM (titrated, usually from 92.2 µM), inactives show at the top dose activity change, negative = less growth; AID 651644; S. pombe RE007 Vpr strain, BacTiter-Glo ATP luminescence, 24 h; control for the full effect not named in the record; active = well fitted falling curve with a large enough effect; inconclusive = small, poorly fitted or top-dose-only effect; inactive = no such curve, though single readings can be large or run the other way;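 further: on the % scale 0 is the no-effect control and ±100 the full control effect; nearly all actives have a fitted effect of over 50% in size; the assay follows cell death caused by Vpr and the record does not say whether a fall means rescue or toxicity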
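Fission yeast RE007 carrying one integrated HIV-1 vpr copy, seeded at OD 0.01 in PMG+AL medium with 23 nL pinned compound. Grown 24 h at 30 degrees; viability read by BacTiter-Glo luminescence after 5 min.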
Lassa entry inh: blocks Lassa virus binding to or entry into cells; actives 1.2% (n = 300,000); Lassa virus pseudotype entry inhibition, cell reporter; control for the full effect not named in the record; Potency, µM (top dose mostly 37.9 µM), for the others: at the highest dose activity change, negative = inhibition, actives largely listed as inhibitors; active means well fitted inhibition curve with a large enough effect; inconclusive means small, poorly fitted or top-dose-only effect, or effect the other way; inactive means flat fitted curve, though single readings scatter; tested in HEK293 cells; further: on the % scale 0 is the no-effect control and ±100 the full control effect; nearly all actives have a fitted effect of over 50% in size; luciferase read-out
StopGo reporter: lowers the luciferase signal of an FMDV 2A StopGo reporter | AID 1159524 | human cells with a luciferase reporter of 2A StopGo recoding; control for the full effect not named in the record | actives 1.2% (n = 410,000) | Potency, µM (series often up to 57.9 µM), without a hit: at the highest dose signal change, negative = less light; active = well fitted falling curve with a large enough effect; inconclusive = small, poorly fitted or top-dose-only effect; inactive = no such curve, though single readings can be large or run the other way; tested in HEK293T cells; further: on the % scale 0 is the no-effect control and ±100 the full control effect; nearly all actives have a fitted effect of over 45% in size; luciferase light after 4 h
SARS PLP yeast: blocks SARS-CoV papain-like protease in a yeast assay | S. cerevisiae expressing SARS-CoV PLpro, growth rescue; control for the full effect not named in the record | Potency, µM (highest dose often 32.9 µM), inactives show top-dose activity, positive = growth rescue | actives 0.19% (n = 330,000); further: 0% is about no effect; nearly all actives have a fitted effect of over 55% in size; growth read by luminescence after 48 h
Cruzain inh Det: cruzain (T. cruzi) inhibition with detergent | P25779 | purified cruzain, Z-FR-AMC fluorescence, 0.01% Triton | Potency, µM, without a hit: max response, negative = inhibition, usual class: inhibitors | actives 0.43% (n = 200,000); active means well fitted curve in the direction sought with a large enough effect; inconclusive means small, poorly fitted or top-dose-only effect, or another doubt; inactive means no such curve, though single readings can be large; an effect the other way counts as inactive or inconclusive;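 further: plate controls were neutral wells for no effect and buffer without enzyme for full effect; nearly all actives have a fitted effect of over 40% in size; top concentration of the series not given in the record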
Target sequence (P25779 123-467 limits assumed): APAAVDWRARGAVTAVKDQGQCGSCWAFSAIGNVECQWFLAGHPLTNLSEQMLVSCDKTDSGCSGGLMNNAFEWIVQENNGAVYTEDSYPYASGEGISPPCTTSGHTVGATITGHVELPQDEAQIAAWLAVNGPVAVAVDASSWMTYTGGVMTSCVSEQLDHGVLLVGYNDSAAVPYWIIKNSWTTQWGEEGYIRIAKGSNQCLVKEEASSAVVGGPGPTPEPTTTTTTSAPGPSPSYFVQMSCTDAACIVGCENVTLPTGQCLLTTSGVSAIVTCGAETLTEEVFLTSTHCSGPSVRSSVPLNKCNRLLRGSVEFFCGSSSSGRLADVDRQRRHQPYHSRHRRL
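Steps: dispense cruzain (1.5 nM final) in acetate buffer pH 5.5 with DTT and 0.01% Triton X-100; pin-transfer compounds; incubate 15 min RT; add Z-FR-AMC (2 uM final); read fluorescence every 30 s, using the 60 s intensity change.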
NS1 function inh: inhibitors of influenza NS1 protein function; S. cerevisiae slowed by influenza A NS1, growth recovery by OD600; Potency, µM (top dose mostly 46.1 µM), inactives show at the highest dose activity, positive = more growth; actives 0.4% (n = 270,000); AID 2326; further: actives are rising curves; nearly all actives have a fitted effect of over 50% in size
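In this qHTS, NS1 from influenza A is expressed in budding yeast, where it slows growth. Cells are switched from glucose to 2% galactose medium (pH 6.0, -URA), treated with compound, and growth recovery is read at OD600.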
MARV entry inh: inhibitors of Marburg virus binding or cell entry | AID 540276 | Potency, µM (top dose mostly 37.8 µM), inactives show top-dose activity change, negative = inhibition, actives largely listed as inhibitors | Marburg virus pseudotyped entry inhibition, cell reporter; control for the full effect not named in the record; about a third of the inactives were read at about 46 µM | actives 1.8% (n = 300,000); active = well fitted inhibition curve with a large enough effect; inconclusive = small, poorly fitted or top-dose-only effect, or effect the other way; inactive = flat fitted curve, though single readings scatter; tested in HEK293 cells; about a fifth of its hits are not listed in these tables; further: on the % scale 0 is the no-effect control and ±100 the full control effect; luciferase read-out
Cruzain noTriton: cruzain (T. cruzi) inhibition without detergent | Potency, µM, for the others: max response, negative = inhibition, most hits filed as inhibitors | P25779 | actives 2.3% (n = 200,000) | purified cruzain, Z-FR-AMC fluorescence, no detergent; active means well fitted curve in the direction sought with a large enough effect; inconclusive means small, poorly fitted or top-dose-only effect, or another doubt; inactive means no such curve, though single readings can be large; an effect the other way counts as inactive or inconclusive;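 further: plate controls were enzyme without inhibitor for no effect and buffer without enzyme for full effect; nearly all actives have a fitted effect of over 40% in size; top concentration of the series not given in the record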
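Detergent-free condition (0.00005% Triton X-100) in acetate buffer pH 5.5 with DTT. 1.5 nM enzyme and compound were pre-mixed 15 min, then 2 uM Z-FR-AMC substrate added; reaction progress from fluorescence change between first and third reads (60 s).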
* = called active by the depositor; ? = inconclusive; nt = no result given; & = joins results of further samples; [ ] = remark or other dose. Unless noted, the call rests on the fitted dose curve; in most records, active means well fitted rising curve with a large enough effect; inconclusive means small, poorly fitted or top-dose-only effect; inactive means no such curve, though single readings can be large or run the other way. Potency means the concentration at half of the fitted maximal effect.

SMILES	RE007 growth inh	Lassa entry inh	StopGo reporter	SARS PLP yeast	Cruzain inh Det	NS1 function inh	MARV entry inh	Cruzain noTriton
COc1ccc(C(=O)NCCCSc2ccccc2)cc1F	2%	0%[46.1 µM]	-1%	-2%	nt	-13%	-1%[46.1 µM]	nt
Cc1cccc(C(=O)NC2CC3CCCC(C2)N3C(=O)NC2CCCCC2)c1 (stereo not drawn)	3%	-7%	0%	7%	-2.8%	-13%	?	-5%
Cc1ccc(NC(=O)CCN2C(=O)OC(C)(C)C2(C)O)cc1 (stereo not drawn)	10%	?	24%	7%	nt	nt	9%[46.1 µM]	nt
O=C(/C=C/c1ccc(F)cc1)N1CCCN(C(=O)/C=C/c2ccc(F)cc2)CC1	4%	1%	-2%	11%	-5.9%	-8%	28%	16%
CCOC(=O)C1=C(C)N=c2s/c(=C\c3cccc(OCC(=O)O)c3)c(=O)n2C1c1ccccc1 (stereo not drawn)	-6%	0%	?	-2%	nt	27%	-6%	nt
CCN(CC)C(=O)COC(=O)c1ccc(C)c(NC(=O)c2ccco2)c1	8%	16%[46.1 µM]	-3%	-6%	nt	nt	-7%[46.1 µM]	nt
Cc1cc2cc(C#N)c(SCC(=O)Nc3nonc3C)nc2cc1C	-11%	3%	-6%	-2%	nt	0%	0%[46.1 µM]	nt
OCCC1CN(Cc2cccn2-c2nccs2)CCN1C1CCCCC1 (stereo not drawn)	4%	nt	-10%	1%	nt	7%	nt	nt
COc1ccc(S(=O)(=O)N(C)C)cc1NC(=O)CN1C(=O)NC2(CCCC2)C1=O	-9%	?	0%	3%	nt	1%	3%[46.1 µM]	nt
CC1CCN(Cc2nc3c(c(=O)n(C)c(=O)n3C)n2CCc2ccccc2)CC1	10%	-15%	0%	nt	nt	9%	?	nt
O=c1c(Cc2ccc(F)cc2)c(O)ccn1Cc1ccc(Cl)cc1Cl	-3%	3%	-26%	0%	-10%	0%	-25%	0%
COC(=O)[C@H](C)NC(=O)Nc1cc(Cl)ccc1C	-6%	16%	nt	-1%	3.9%	3%	19%	-22%
Cc1ccc2c(NC(=O)C3CC3)cccc2n1	-6%	?	-3%	5%	-0.8%	3%	-23%[46.1 µM]	-8%
COc1ccc(NC(=O)/C=C/c2ccc(OC)c(OC)c2)cn1	6%	-8%	?	0%	nt	-9%	13%	nt
CCCCN(CC)CCCNC(=O)c1cn(C)c(=O)c2c1c1ccccc1n2C	2%	22%[46.1 µM]	-14%&1%	0%	-1.1%	5%	?	-9%
Cc1ccc(S(=O)(=O)Nc2ccccc2CNc2ccccn2)cc1	nt	18%	19%	-19%	-1.6%	-8%	-3%	-17%
COC(=O)c1ccc(Cl)c(S(=O)(=O)N2CCCC2)c1	-9%	?	-11%	0%	nt	nt	-9%[46.1 µM]	nt
Cc1scc(C(=O)Nc2ccon2)c1-c1ccccc1	-8%	2%	-19%	0%	0.9%	8%	?	-5%
COc1ccc2cc(-c3nc(Cl)c4c5c(sc4n3)CC(C)CC5)c(=O)oc2c1 (stereo not drawn)	nt	3%[46.1 µM]	-4%	nt	-3.3%	nt	2%[46.1 µM]	-8%
COC(=O)c1ccc(NC(=O)CSc2nnc(C(C)NC(=O)c3ccccc3Cl)n2C)cc1 (stereo not drawn)	0%	-5%	5%	-2%	3.5%	-4%	2%[46.1 µM]	4%
O=C(NC1CCCC1)C(c1ccccc1F)N(C(=O)c1ccco1)C1CCCC1 (stereo not drawn)	0%	-2%	-27%	0%	-1.0%	-14%	-23%	19%
O=C(Nc1ccccc1[N+](=O)[O-])c1cc(S(=O)(=O)Nc2ccccn2)ccc1Cl	0%	10%	40%[activator]	16%	nt	2%	-11%[46.1 µM]	nt
C=CCn1c(NC)cc(=O)n(C)c1=O	11%	0%	22%	5%	-4.1%	0%	22%	-2%
Cc1ccc2nc3c(c(N)c2c1)CCN3C	-17%	?	8%	-2%	nt	1%	?	nt
COc1ccc(NC(=O)CSc2nnc(Cc3ccccc3)c(=O)n2N)cc1OC	2%	0%	-11%	2%	nt	nt	4%[46.1 µM]	nt
CNC(=O)N(C1=NCCCCC1)c1ccc(Br)cc1	7%	3%	-15%	nt	-5.7%	3%	3%	9%
COc1ccc(OCC(O)CNC(=O)c2ccccc2)cc1 (stereo not drawn)	0%	nt	-1%	0%	nt	0%	nt	nt
Cc1ccc(C(=O)COC(=O)c2cc(=O)[nH]c3ccccc23)cc1C	-1%	?	14%	-1%	nt	4%	?	nt
CC(=O)Nc1ccc(Nc2ncnc3c2cnn3-c2ccc(C)cc2C)cc1	-2%	2%	-2%	-11%	0.0%	-8%	?	6%
COc1cccc(C2=C(C(C)=O)Sc3nncn3N2C(C)=O)c1	nt	?	-2%	nt	-5.0%	nt	nt	-2%
COc1nc(-c2ccc(C)cc2)ccc1-c1noc(-c2cccnc2)n1	29%	8%	-15%	8%	-3.7%	-4%	7%	?
COc1ccccc1C(=O)NCC(=O)N1CCN(C/C=C/c2ccccc2)CC1	6%	-27%	?	-4%	nt	nt	-27%	nt
COc1cccc(OC)c1C(=O)Nc1ccc(N2CCCCC2)cc1	0%	-19%	-1%	nt	3.2%	5%	?	-10%
CCc1ccccc1NC(=O)C(CCSC)NS(=O)(=O)c1ccc2c(c1)oc(=O)n2C (stereo not drawn)	nt	9%[46.1 µM]	-1%	nt	-0.3%	nt	-11%[46.1 µM]	-6%
N#CCCN(C(=O)COc1ccc(Br)cc1F)c1ccc(F)cc1	7%	5%	-6%	0%	nt	-3%	-27%	nt
CCN1CC=C2C(C#N)=C(N)C(C#N)(C#N)[C@H](c3ccoc3)[C@H]2C1	0%	-10%	-6%	3%	-21%	9%	-11%	?
O=C(COc1coc(CN2CCc3ccccc32)cc1=O)Nc1ccc([N+](=O)[O-])cc1	7%	0%	-10%	-1%	nt	nt	-4%	nt
CCN(CC)C(=O)c1ccc2c(c1[N+](=O)[O-])C(=O)c1ccccc1C2=O	nt	nt	nt	-23%	-2.3%	2%	nt	-8%
Cc1cc(C)c(S(=O)(=O)NCc2ccc3c(c2)CCN3C(=O)c2ccccc2)c(C)c1	nt	6%[46.1 µM]	?	nt	0.5%	nt	nt	-15%
O=C(O)c1ccccc1C(=O)NC1CCN(c2nccc(C(F)(F)F)n2)CC1	31%	0%	-1%	-2%	nt	3%	9%[46.1 µM]	nt
O=C(CCNC(=O)c1ccc(Cl)cc1)Nc1cccc(S(=O)(=O)N2CCCCC2)c1	-3%	-4%	13%	-3%	nt	nt	-18%	nt
Cn1nc(C(=O)NCc2cccnc2)c2ccccc2c1=O	-3%	2%	-6%	-5%	2.0%	3%	8%	-7%
CSc1nc(-c2ccccc2)cc(C)c1C#N	-4%	-20%	-19%	0%	nt	-2%	10%[46.1 µM]	nt
COc1ccc(NC(=O)C(=O)N/N=C/c2cccnc2)cc1	-4%	16%[46.1 µM]	-15%	-2%	nt	2%	1%[46.1 µM]	nt
O=C(c1ccco1)N1CCN(C(=O)C2CC(c3ccc(Cl)c(Cl)c3)=NO2)CC1 (stereo not drawn)	-24%	-11%	-27%	-15%	-5.3%	-43%	?	?
O=C(NCCc1ccc2c(c1)OCCO2)c1ccc([N+](=O)[O-])cc1Cl	1%	0%	-4%	1%	nt	5%	-1%	nt
Cc1cc(C)c[n+](CC(=O)c2ccc(-c3ccccc3)cc2)c1	-20%	?	?	-18%	-1.4%	17%	?	-7%
CN(C)c1ccc(CNC(=O)c2ccc(NC(=O)c3nsc4ccccc34)cc2)cc1	nt	-16%[46.1 µM]	-1%	nt	-0.1%	nt	nt	-6%
CCOC(=O)N1CCN(C(=O)c2ccc3c(c2)N(C)C(=O)/C(=C\c2ccc(OCC)c(OC)c2)S3)CC1	3%	5µM*	35µM*	-5%	nt	-2%	11µM*	nt
Cc1cccc(OCCOc2ccccc2C=C(C#N)C#N)c1	-15%	-4%	2%	-36%	-13%	-41%	?	2%

More structures follow:
SMILES	RE007 growth inh	Lassa entry inh	StopGo reporter	SARS PLP yeast	Cruzain inh Det	NS1 function inh	MARV entry inh	Cruzain noTriton
CCOc1ccc2[nH]c(=O)c(C(c3nnnn3Cc3ccco3)N3CCCC(C)C3)cc2c1 (stereo not drawn)	-6%	-13%	-10%	2%	?	-23%	-3%&-29%	?
CCCCNc1ncnc2c1nnn2Cc1ccccc1Cl	2%	nt	-7%	3%	nt	17%	nt	nt
COC(=O)c1c(C(=O)OC)c2ccccn2c1C(=O)c1ccccc1	0%	1%[46.1 µM]	-22%	4%	nt	-19%	?	nt
CC(=O)NCCc1nc2cc(NC(=O)c3ccc(Cl)cc3)ccc2n1C	1%	nt	30%[activator]	0%	nt	10%	nt	nt
Cc1cc(=O)cc(C)n1-c1ccc(Cl)c(Cl)c1	0%	-7%	-11%	2%	nt	-4%	8%[46.1 µM]	nt
CCOC(=O)c1c(Nc2ccc(Cl)cc2)sc(/C=C2\C=Nc3ccccc32)c1O	-2%	-26%	7%	6%	-3.4%	1%	?	7.9µM*
Cc1cc(C(=O)CN2C(=O)NC3(CCCc4sccc43)C2=O)c(C)n1-c1ccccc1 (stereo not drawn)	1%	?	0%	22%	-3.4%	-1%	-9%	?
C=CCN1C(=O)NC(=O)/C(=C/C=C/c2ccccc2)C1=O	23%	18%	?	-2%	nt	nt	17%	nt
O=C(Cn1nc(Cc2cccnc2)c2ccccc2c1=O)Nc1cccc(C(F)(F)F)c1	nt	-16%[46.1 µM]	-12%	nt	-5.7%	nt	-5%[46.1 µM]	7%
COCC(=O)N1CCN(c2nc3ccccc3o2)CC1	-27%	17%[46.1 µM]	7%	-1%	nt	nt	?	nt
C=CCNC(=O)NC(=O)COC(=O)CCCSc1nc2ccccc2[nH]1	-7%	-6%	14%	1%	-1.2%	-5%	19%	-4%
Cc1ccc(-n2c(C)nc3ccccc3c2=O)cc1C	14%	nt	-6%	1%	nt	-4%	nt	nt
CCOC(=O)c1ccc(N2C(=O)c3[nH]nc(-c4ccc(OC)cc4)c3C2c2cccc(O)c2)cc1 (stereo not drawn)	nt	?	32µM*	nt	-7.8%	nt	?	?
NNC(=O)c1cc(-c2ccc(O)cc2)nc2ccc(Br)cc12	-7%	nt	26%	-1%	nt	9%	nt	nt

Not a hit list (roughly 4.7% active in at least one column).
